A1 apoptosis 2 = A1 inhibitors via caspase activation, primary screen, cell-based, luminescence, HTS, two replicates; MEF A1-2A-BIM cells, caspase-Glo luminescence, 3 h; percent of clofoctol response, DMSO zero; caspase activation, % (concentration not given with the values); 24,000 tested, under 10 active; AID 2465, 2010; in the data active means caspase activation above about 5.9%;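 further: wells of about 30 µL received 50 nL stock; the first replicate is given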
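Evaluation: Caspase-3/7 activity from luminescence increase | Assay system: A1-2A-BIM mouse embryonic fibroblasts | Quantity: 2500 MEF cells/well | Medium: RPMI-1640 plus 10% FBS | Detection: Caspase-Glo 3/7 luminescence, 1 h at room temperature | Dosing: 50 nL compound per well, pinned | Timing: Cells settled overnight, compound exposure 3 h at 37 °C, 5% CO2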
* marks the source's active call; other numbers are inactive results. A portion of the library. The share of hits here may be higher or lower than overall.

C[C@@H]1CCCCO[C@H](CN(C)CC2CC2)[C@@H](C)CN([C@H](C)CO)C(=O)c2cc(NC(=O)Nc3ccccc3)ccc2O1
  A1 apoptosis 2: -0.5
C[C@@H]1CN([C@H](C)CO)C(=O)c2cccc(NS(C)(=O)=O)c2O[C@H]1CN(C)C(=O)Nc1ccc2c(c1)OCO2
  A1 apoptosis 2: 1.1
C[C@@H]1CN([C@@H](C)CO)C(=O)Cc2cc(NS(C)(=O)=O)ccc2O[C@@H]1CN(C)Cc1ccc2c(c1)OCO2
  A1 apoptosis 2: -0.4
Cc1noc(C)c1NC(=O)N(C)C[C@H]1Oc2ccc(NS(=O)(=O)c3ccc(Cl)cc3)cc2C(=O)N([C@H](C)CO)C[C@@H]1C
  A1 apoptosis 2: -0.7
C[C@@H]1CCCCO[C@H](CN(C)S(=O)(=O)c2cccs2)[C@H](C)CN([C@@H](C)CO)C(=O)c2cc(NC(=O)C3CCCCC3)ccc2O1
  A1 apoptosis 2: 0.0
COc1ccc(CN(C)C[C@H]2Oc3ccc(NC(=O)C4CC4)cc3C(=O)N([C@H](C)CO)C[C@H]2C)cc1
  A1 apoptosis 2: 0.7
Nc1cc2c3ccccc3ccc2c2ccccc12
  A1 apoptosis 2: -5.6
COc1ccc(S(=O)(=O)Nc2cccc3c2O[C@H](CN(C)S(=O)(=O)c2ccc(C)cc2)[C@H](C)CN([C@@H](C)CO)C3=O)cc1
  A1 apoptosis 2: 0.5
C[C@@H]1CN([C@@H](C)CO)C(=O)CCCn2cc(nn2)CO[C@H]1CN(C)Cc1cccc2c1OCCCO2
  A1 apoptosis 2: 0.7
Cc1noc(C)c1NC(=O)Nc1cccc2c1O[C@@H](CN(C)S(=O)(=O)c1cccs1)[C@@H](C)CN([C@@H](C)CO)C2=O
  A1 apoptosis 2: 0.2

C[C@@H]1CN([C@@H](C)CO)C(=O)Cc2cc(NC(=O)NC3CCCCC3)ccc2O[C@@H]1CN(C)C(=O)Nc1cccc2ccccc12
  A1 apoptosis 2: 1.0
C[C@H]1CN([C@@H](C)CO)C(=O)CCCn2nncc2CO[C@@H]1CN(C)Cc1cccc(C(=O)O)c1
  A1 apoptosis 2: -0.5
CNC[C@@H]1OCCCC[C@H](C)Oc2ccc(NS(=O)(=O)c3cn(C)cn3)cc2C(=O)N([C@H](C)CO)C[C@@H]1C
  A1 apoptosis 2: -0.4
Cc1noc(C)c1S(=O)(=O)Nc1ccc2c(c1)CC(=O)N([C@@H](C)CO)C[C@@H](C)[C@@H](CN(C)S(=O)(=O)c1ccc(F)cc1)O2
  A1 apoptosis 2: 1.1
C[C@@H]1CCCCO[C@H](CN(C)Cc2ccccc2)[C@H](C)CN([C@@H](C)CO)C(=O)c2cc(NS(=O)(=O)c3ccc(Cl)cc3)ccc2O1
  A1 apoptosis 2: -0.2
Cc1noc(C)c1NC(=O)Nc1ccc2c(c1)C(=O)N([C@@H](C)CO)C[C@H](C)[C@@H](CN(C)Cc1ccccc1)OCCCC[C@@H](C)O2
  A1 apoptosis 2: -0.3
C[C@@H]1CCCCO[C@H](CN(C)C(=O)Nc2ccccc2)[C@@H](C)CN([C@H](C)CO)C(=O)c2cc(NC(=O)C3CCCCC3)ccc2O1
  A1 apoptosis 2: -0.3
C[C@@H]1CN([C@@H](C)CO)C(=O)Cc2cc(NC(=O)c3ccncc3)ccc2O[C@H]1CN(C)C(=O)Nc1cccc2ccccc12
  A1 apoptosis 2: -0.8
CC(C)NC(=O)Nc1ccc2c(c1)C(=O)N([C@@H](C)CO)C[C@@H](C)[C@@H](CN(C)C(=O)c1ccccc1)OCCCC[C@H](C)O2
  A1 apoptosis 2: -0.1
C[C@H](CO)N1C[C@H](C)[C@@H](CN(C)Cc2ccc(C(=O)Nc3ccccc3N)cc2)Oc2c(NC(=O)C3CCOCC3)cccc2C1=O
  A1 apoptosis 2: 0.7

C[C@@H]1CN([C@@H](C)CO)C(=O)c2cccc(NC(=O)C3CC3)c2O[C@H]1CN(C)C(=O)NC1CCCCC1
  A1 apoptosis 2: -0.1
C[C@H]1CN([C@@H](C)CO)C(=O)Cc2cc(NC(=O)Nc3ccc4c(c3)OCO4)ccc2O[C@H]1CN(C)C(=O)Nc1cccc2ccccc12
  A1 apoptosis 2: 0.6
Cc1ccc(S(=O)(=O)Nc2ccc3c(c2)C(=O)N([C@H](C)CO)C[C@H](C)[C@@H](CN(C)C(=O)Nc2ccc(F)cc2)OCCCC[C@H](C)O3)cc1
  A1 apoptosis 2: -0.8
CC(C)NC(=O)Nc1ccc2c(c1)CC(=O)N([C@@H](C)CO)C[C@H](C)[C@H](CN(C)S(=O)(=O)c1cn(C)cn1)O2
  A1 apoptosis 2: -0.6
C[C@@H]1CN([C@H](C)CO)C(=O)c2cc(NC(=O)CCCN(C)C)ccc2O[C@H]1CN(C)S(=O)(=O)c1ccc(Cl)cc1
  A1 apoptosis 2: -1.3
C[C@H](CO)N1C[C@H](C)[C@@H](CN(C)S(=O)(=O)c2cccs2)Oc2ccc(NC(=O)Nc3ccc4c(c3)OCO4)cc2CC1=O
  A1 apoptosis 2: 1.0
C[C@@H]1CN([C@@H](C)CO)C(=O)CCCn2cc(nn2)CO[C@@H]1CN(C)C(=O)Nc1ccc(-c2cccs2)cc1
  A1 apoptosis 2: -0.1
Cc1noc(C)c1S(=O)(=O)Nc1cccc2c1O[C@H](CN(C)Cc1ccc(-c3ccccc3)cc1)[C@H](C)CN([C@H](C)CO)C2=O
  A1 apoptosis 2: 2.5
COc1ccc(S(=O)(=O)N(C)C[C@H]2Oc3c(NC(=O)Nc4ccc(C(F)(F)F)cc4)cccc3C(=O)N([C@@H](C)CO)C[C@H]2C)cc1
  A1 apoptosis 2: -0.3
Cc1noc(C)c1NC(=O)Nc1ccc2c(c1)C(=O)N([C@@H](C)CO)C[C@@H](C)[C@H](CN(C)C(=O)Nc1ccc3c(c1)OCO3)OCCCC[C@H](C)O2
  A1 apoptosis 2: -0.3

No new results follow: an excerpt of the list.
C[C@H](CO)N1C[C@H](C)[C@@H](CN(C)Cc2ccc(C(=O)Nc3ccccc3N)cc2)Oc2c(NC(=O)C3CCOCC3)cccc2C1=O
  A1 apoptosis 2: 0.7
C[C@@H]1CN([C@@H](C)CO)C(=O)c2cccc(NC(=O)C3CC3)c2O[C@H]1CN(C)C(=O)NC1CCCCC1
  A1 apoptosis 2: -0.1
C[C@H]1CN([C@@H](C)CO)C(=O)Cc2cc(NC(=O)Nc3ccc4c(c3)OCO4)ccc2O[C@H]1CN(C)C(=O)Nc1cccc2ccccc12
  A1 apoptosis 2: 0.6
Cc1ccc(S(=O)(=O)Nc2ccc3c(c2)C(=O)N([C@H](C)CO)C[C@H](C)[C@@H](CN(C)C(=O)Nc2ccc(F)cc2)OCCCC[C@H](C)O3)cc1
  A1 apoptosis 2: -0.8
CC(C)NC(=O)Nc1ccc2c(c1)CC(=O)N([C@@H](C)CO)C[C@H](C)[C@H](CN(C)S(=O)(=O)c1cn(C)cn1)O2
  A1 apoptosis 2: -0.6
C[C@@H]1CN([C@H](C)CO)C(=O)c2cc(NC(=O)CCCN(C)C)ccc2O[C@H]1CN(C)S(=O)(=O)c1ccc(Cl)cc1
  A1 apoptosis 2: -1.3
C[C@H](CO)N1C[C@H](C)[C@@H](CN(C)S(=O)(=O)c2cccs2)Oc2ccc(NC(=O)Nc3ccc4c(c3)OCO4)cc2CC1=O
  A1 apoptosis 2: 1.0
C[C@@H]1CN([C@@H](C)CO)C(=O)CCCn2cc(nn2)CO[C@@H]1CN(C)C(=O)Nc1ccc(-c2cccs2)cc1
  A1 apoptosis 2: -0.1
Cc1noc(C)c1S(=O)(=O)Nc1cccc2c1O[C@H](CN(C)Cc1ccc(-c3ccccc3)cc1)[C@H](C)CN([C@H](C)CO)C2=O
  A1 apoptosis 2: 2.5

Remaining list, next part
Cc1noc(C)c1S(=O)(=O)N(C)C[C@H]1Oc2c(NS(=O)(=O)c3ccc(F)cc3)cccc2C(=O)N([C@@H](C)CO)C[C@H]1C
  A1 apoptosis 2: -1.4
C[C@H]1CCCCO[C@H](CN(C)S(=O)(=O)c2cn(C)cn2)[C@@H](C)CN([C@@H](C)CO)C(=O)c2cc(NC(=O)CCCN(C)C)ccc2O1
  A1 apoptosis 2: 0.2
COc1ccc(CN(C)C[C@H]2OCCCC[C@@H](C)Oc3ccc(NC(=O)CCC(F)(F)F)cc3C(=O)N([C@@H](C)CO)C[C@@H]2C)cc1
  A1 apoptosis 2: -0.6
C[C@@H]1CN([C@H](C)CO)C(=O)Cc2cc(NS(=O)(=O)c3cccs3)ccc2O[C@H]1CN(C)C(=O)Nc1ccc2c(c1)OCO2
  A1 apoptosis 2: -1.2
C[C@@H]1CCCCO[C@H](CN(C)Cc2ccc(C(=O)O)cc2)[C@@H](C)CN([C@H](C)CO)C(=O)c2cc(NC(=O)CCC(F)(F)F)ccc2O1
  A1 apoptosis 2: 0.0
CC(C)NC(=O)Nc1ccc2c(c1)CC(=O)N([C@H](C)CO)C[C@@H](C)[C@H](CN(C)S(C)(=O)=O)O2
  A1 apoptosis 2: 1.9
C[C@@H]1CCCCO[C@@H](CN(C)S(=O)(=O)c2cccs2)[C@@H](C)CN([C@@H](C)CO)C(=O)c2cc(NC(=O)Nc3ccc(F)cc3)ccc2O1
  A1 apoptosis 2: 0.2
Cc1noc(C)c1NC(=O)Nc1ccc2c(c1)C(=O)N([C@@H](C)CO)C[C@H](C)[C@@H](CN(C)S(=O)(=O)c1c(C)noc1C)OCCCC[C@@H](C)O2
  A1 apoptosis 2: -1.1
C[C@@H]1CN([C@@H](C)CO)C(=O)c2cc(NC(=O)Nc3ccc(F)cc3)ccc2O[C@@H](C)CCCCO[C@@H]1CN(C)Cc1ccncc1
  A1 apoptosis 2: 0.3
C[C@@H]1CN([C@@H](C)CO)C(=O)c2cccc(NC(=O)c3ccncc3)c2O[C@@H]1CN(C)C(=O)Nc1cccc2ccccc12
  A1 apoptosis 2: 0.6

C[C@@H]1CN([C@@H](C)CO)C(=O)c2cc(NS(C)(=O)=O)ccc2O[C@H]1CN(C)C
  A1 apoptosis 2: 0.5
C[C@@H]1CN([C@@H](C)CO)C(=O)c2cccc(N(C)C)c2O[C@@H]1CN(C)C(=O)NC1CCCCC1
  A1 apoptosis 2: 0.8
C[C@H](CO)N1C[C@H](C)[C@@H](CN(C)C(=O)NC2CCCCC2)Oc2ccc(NC(=O)Nc3cccc4ccccc34)cc2C1=O
  A1 apoptosis 2: -0.2
O=C(NO)c1ccc(C(=O)N/N=C/c2ccccc2C(=O)O)cc1
  A1 apoptosis 2: -0.9
C[C@@H]1CN([C@@H](C)CO)C(=O)Cc2cc(NS(=O)(=O)c3cn(C)cn3)ccc2O[C@@H]1CN(C)Cc1ccccc1
  A1 apoptosis 2: 0.4
C[C@@H]1CN([C@@H](C)CO)C(=O)c2cccc(NC(=O)NC3CCCCC3)c2O[C@@H]1CN(C)C(=O)Nc1cccc2ccccc12
  A1 apoptosis 2: -1.7
C[C@@H]1CCCCO[C@H](CN(C)Cc2ccccc2)[C@@H](C)CN([C@H](C)CO)C(=O)c2cc(NS(=O)(=O)c3cn(C)cn3)ccc2O1
  A1 apoptosis 2: 0.4
CC(C)NC(=O)N(C)C[C@H]1Oc2ccc(NS(=O)(=O)c3ccc(F)cc3)cc2CC(=O)N([C@H](C)CO)C[C@H]1C
  A1 apoptosis 2: -0.7
COc1ccc(CN(C)C[C@H]2Oc3ccc(NC(=O)Nc4c(C)noc4C)cc3CC(=O)N([C@H](C)CO)C[C@H]2C)cc1
  A1 apoptosis 2: -1.0
C[C@@H]1CN([C@H](C)CO)C(=O)c2cc(NS(C)(=O)=O)ccc2O[C@@H]1CN(C)Cc1ccccc1
  A1 apoptosis 2: 0.5

C[C@@H]1CCCCO[C@@H](CN(C)S(=O)(=O)c2ccccc2)[C@@H](C)CN([C@@H](C)CO)C(=O)c2cc(NC(=O)CCC(F)(F)F)ccc2O1
  A1 apoptosis 2: -0.4
C[C@@H]1CN([C@H](C)CO)C(=O)Cc2cc(NC(=O)c3ccncc3)ccc2O[C@@H]1CN(C)C(=O)Nc1cccc2ccccc12
  A1 apoptosis 2: -0.7
C[C@H](CO)N1C[C@H](C)[C@@H](CN(C)CC2CCCCC2)Oc2ccc(NC(=O)NC3CCCCC3)cc2C1=O
  A1 apoptosis 2: 1.0
C[C@H]1CN([C@@H](C)CO)C(=O)Cc2cc(NC(=O)Cn3cnnn3)ccc2O[C@@H]1CN(C)CC1CC1
  A1 apoptosis 2: 1.4
Cc1ccc(S(=O)(=O)N(C)C[C@@H]2Oc3c(NC(=O)Nc4c(C)noc4C)cccc3C(=O)N([C@H](C)CO)C[C@H]2C)cc1
  A1 apoptosis 2: 0.5
C[C@H]1CN([C@@H](C)CO)C(=O)Cc2cc(NC(=O)NC3CCCCC3)ccc2O[C@@H]1CN(C)Cc1ccc(Cl)c(Cl)c1
  A1 apoptosis 2: 0.6
C[C@@H]1CN([C@@H](C)CO)C(=O)Cc2cc(NS(C)(=O)=O)ccc2O[C@@H]1CN(C)C(=O)Nc1cccc2ccccc12
  A1 apoptosis 2: 1.5
COc1ccc(S(=O)(=O)Nc2cccc3c2O[C@H](CN(C)Cc2ccc(C(=O)O)cc2)[C@@H](C)CN([C@H](C)CO)C3=O)cc1
  A1 apoptosis 2: -0.4
C[C@@H]1CN([C@@H](C)CO)C(=O)c2cc(NC(=O)Cn3cnnn3)ccc2O[C@H]1CN(C)Cc1ccc(Cl)c(Cl)c1
  A1 apoptosis 2: 0.2
Cc1noc(C)c1NC(=O)N(C)C[C@@H]1Oc2ccc(NS(=O)(=O)c3ccc(F)cc3)cc2C(=O)N([C@H](C)CO)C[C@@H]1C
  A1 apoptosis 2: 0.2
CNC[C@@H]1OCCCC[C@H](C)Oc2ccc(NS(=O)(=O)c3ccc(OC)cc3)cc2C(=O)N([C@@H](C)CO)C[C@@H]1C
  A1 apoptosis 2: -0.6
